MbtI inh – blocks the Mycobacterium tuberculosis siderophore enzyme MbtI; P9WFX0; purified MbtI enzyme, fluorescence intensity read-out; inhibition, %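 (about 17 µg/mL by stock and volumes)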; actives 0.89% (n = 100,000); AID 493033;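 active = above 50% in both replicates, above 80% if mildly self-fluorescent; inactive = the rest, strongly fluorescent compounds included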;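 also: 0% = mean of negative and 100% = mean of positive controls; one replicate is shown; some compounds called inactive have numbers as strong as hits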
Polio RdRp inh – inhibitors of poliovirus RNA polymerase binding and polymerization; P03300; poliovirus polymerase elongation, fluorescence polarization; active compounds read low; % elongation, % (compound at 16.7 µg/mL); actives 0.66% (n = 150,000); AID 588519; in the data active = % elongation below about 90%; also: some results filed as inactive read as strong as hits
Target sequence (P03300 1749-2209 limits assumed): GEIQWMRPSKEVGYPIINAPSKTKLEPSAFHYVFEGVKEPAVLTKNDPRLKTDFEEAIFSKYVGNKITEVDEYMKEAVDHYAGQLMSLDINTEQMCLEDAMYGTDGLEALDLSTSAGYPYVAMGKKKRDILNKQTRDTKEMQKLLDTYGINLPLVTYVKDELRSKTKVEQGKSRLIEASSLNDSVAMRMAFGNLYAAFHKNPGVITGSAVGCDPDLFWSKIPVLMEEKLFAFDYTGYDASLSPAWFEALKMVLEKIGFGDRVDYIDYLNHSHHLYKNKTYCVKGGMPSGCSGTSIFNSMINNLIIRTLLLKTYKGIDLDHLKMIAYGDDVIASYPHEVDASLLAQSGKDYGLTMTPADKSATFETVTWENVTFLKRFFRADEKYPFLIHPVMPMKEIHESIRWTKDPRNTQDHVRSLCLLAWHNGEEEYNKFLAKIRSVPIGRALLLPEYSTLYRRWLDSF
Mtb MenB inh – inhibitors of Mycobacterium tuberculosis MenB enzyme; P9WNP5; MenB enzyme assay, absorbance read-out; some hits fall short of the stated cut; inhibition, %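 (about 12 µg/mL by stock and volumes)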; actives 0.43% (n = 100,000);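 active = mean of two replicates above 30%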;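 also: 0% = no compound and 100% = wells with inactive enzyme; the first replicate is given; strong numbers were not always called active; inactives centre near -10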
Target sequence (P9WNP5 whole entry, looked up): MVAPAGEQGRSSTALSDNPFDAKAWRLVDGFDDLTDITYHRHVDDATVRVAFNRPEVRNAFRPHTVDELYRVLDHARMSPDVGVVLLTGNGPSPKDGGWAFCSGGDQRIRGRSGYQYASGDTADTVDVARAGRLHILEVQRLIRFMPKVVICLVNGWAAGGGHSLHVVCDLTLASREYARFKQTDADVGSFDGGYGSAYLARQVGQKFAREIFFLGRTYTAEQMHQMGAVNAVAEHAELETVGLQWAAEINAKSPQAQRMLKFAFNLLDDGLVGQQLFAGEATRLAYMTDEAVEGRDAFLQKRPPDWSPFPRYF
Polio RdRp inh intensity – also measured in Polio RdRp inh; calls as there; % elongation; measured here: total intensity read-out; formula for this scale not given here;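 total fluorescence in place of polarization; lower means less elongation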
Starred values were filed as active, the others as inactive; . = no result given.

Every second line gives: MbtI inh | Polio RdRp inh | Polio RdRp inh intensity | Mtb MenB inh
C1=Cc2ccccc2Nc2ccccc21
 : -1.0 | 103.0 | 104.0 | -19.5
O=C(CCc1nc2ccccc2c(=O)[nH]1)OCc1ccccc1
 : 15.7 | 102.0 | 99.0 | 8.4
Cn1c(Sc2nnnn2-c2ccccc2)nnc1C(F)(F)F
 : 9.4 | 101.0 | 92.0 | -38.8
Cc1cc(C)c(S(=O)(=O)Nc2nnc(C(F)(F)F)s2)c(C)c1
 : -15.8 | 101.0 | 102.0 | -16.1
COC(=O)c1ccc(/C=[N+](/[O-])C2(C)CCCCC2=O)cc1 (stereo unspecified)
 : 28.4 | 97.0 | 103.0 | 10.6
CCN(C(=O)c1ccc(Cl)cc1Cl)c1nnc(-c2ccncc2)s1
 : . | 107.0 | 112.0 | 2.3
CCN(C(=O)CCc1c(C)[nH]c(=O)c(C#N)c1C)c1nc2c(C)cccc2s1
 : -1.5 | 106.0 | 109.0 | 1.8
CCC1Sc2cc(S(=O)(=O)Nc3cccc(Cl)c3)ccc2NC1=O (stereo unspecified)
 : -6.3 | 102.0 | 103.0 | 1.2
COc1ccc(C=Nc2ccc(Br)cc2)cc1
 : . | 105.0 | 115.0 | -4.6
N#Cc1ccc(CSc2ccc3c(c2)OCCO3)cc1
 : -5.3 | 107.0 | 98.0 | -20.9
O=C(OCC(=O)N1CCCC1)c1ccc(Cl)nc1
 : 2.4 | 100.0 | 107.0 | -8.7
COc1ccc(NC(=O)CC2CCCC2)c(S(=O)(=O)N2CCCCC2)c1
 : -5.5 | 101.0 | 103.0 | -19.4
O=C(O)CNC(=O)C12CC3CC(CC(C3)C1)C2
 : -5.1 | 100.0 | 103.0 | .
CC(NC(=O)CSc1nnc(COc2ccccc2)o1)c1ccccc1 (stereo unspecified)
 : -2.1 | 101.0 | 100.0 | 10.3
CCCCN(C(C)=O)c1c(N)n(CCC)c(=O)[nH]c1=O
 : -18.9 | 105.0 | 110.0 | -1.5
O=C(Nc1ccccc1)C1=C(N2CCOCC2)/C(=C\c2cccnc2)CC1
 : 24.7 | 101.0 | 97.0 | -23.1
CSc1ccc(S(=O)(=O)Nc2ccc3c(c2)NC(=O)CC3)cc1
 : -1.6 | 99.0 | 105.0 | -16.0
O=C(CN1C(=O)c2ccccc2C1=O)NC1=NCCS1
 : -3.4 | 101.0 | 99.0 | -3.0
COc1ccc(NC(=O)CNc2ccc(NC(C)=O)cc2)c(OC)c1
 : -4.8 | 106.0 | 108.0 | -1.9
C#C[C@]1(O)CC[C@H]2[C@@H]3CCC4=C(CCC(=O)C4)[C@H]3CC[C@@]21C
 : -0.8 | 100.0 | 103.0 | 3.0
Cc1[nH]n(-c2cccc(Cl)c2)c(=O)c1C1CC(=O)N(c2ccccc2)C1=O (stereo unspecified)
 : . | 101.0 | 103.0 | 9.7
COc1cnn(-c2ccccc2)c(=O)c1OC
 : -0.1 | 102.0 | 101.0 | -27.0
CC(=O)Nc1ccc2c(CSc3nnc(-c4cccs4)n3CC3CCCO3)cc(=O)oc2c1 (stereo unspecified)
 : 135.0 | 100.0 | 105.0 | 3.6
CCOc1ccc2oc(=O)cc(CN3CCOCC3)c2c1
 : -3.9 | 103.0 | 102.0 | -4.2
CNCC(C)c1ccccc1 (stereo unspecified)
 : 3.9 | 98.0 | 103.0 | -18.4
CCCCC(=O)c1ccc(O)cc1
 : 2.2 | 101.0 | 104.0 | -67.9
CC(C)CCOc1ccc(C(=O)C(CN2CCOCC2)c2ccccc2)cc1 (stereo unspecified)
 : 5.8 | 103.0 | 108.0 | -20.7
COc1ccc(-c2oc3ncn(Cc4ccco4)c(=N)c3c2-c2ccc(OC)cc2)cc1
 : 12.5 | 102.0 | 102.0 | 4.0
CN(C)c1ccc(/C=C2\CCC(=C3SCCCS3)C2=O)cc1
 : 3.5 | 44.0 | 234.0 | -2.0
CCC(=O)N=c1sc2cc(Br)ccc2n1CCOC
 : -11.1 | 105.0 | 103.0 | -18.4
CN1C(=O)N(C)C(=O)C(CCc2ccncc2)(C2(C#N)CCCCC2)C1=O
 : . | 104.0 | 112.0 | -15.1
O=C(OCC(=O)N1CCc2ccccc21)C1CC2C=CC1C2 (stereo unspecified)
 : -4.9 | 102.0 | 108.0 | .
O=C(Nc1ccccc1N1CCOCC1)C1CCN(c2nccc(C(F)(F)F)n2)CC1
 : 1.6 | 101.0 | 102.0 | 18.4
O=C(O)C12CC3CC(C1)CC(n1ncc(NCc4ccc(F)cc4)c(Cl)c1=O)(C3)C2
 : -7.8 | 103.0 | 109.0 | -6.0
O=c1[nH]c(=O)n(C2C[C@@H](O)[C@@H](CO)O2)cc1F (stereo partly specified)
 : -5.0 | 99.0 | 100.0 | -3.1
Cn1c(P(C)(=O)O)nc2ccccc21
 : . | 102.0 | 103.0 | 0.0
COc1ccc(CN2CCN(C(=O)c3c(C)nn(Cc4ccccc4)c3C)CC2)cc1F
 : -2.3 | 99.0 | 104.0 | -7.1
CCCn1c(C(=O)OCC)cc2sccc21
 : 6.0 | 103.0 | 101.0 | -45.8
Nc1ccc(N2CCOCC2)c(N)c1
 : 35.2 | 56.0* | 105.0* | -43.1
CCN(C(=O)Nc1ccccc1)c1ccccc1
 : . | 105.0 | 112.0 | -5.4
O=C(/C=C/c1ccccc1)Sc1nc2ccccc2o1
 : 16.6 | 102.0 | 106.0 | .
NC(=O)c1ccccc1NC(=O)c1cccnc1N1CCCC1
 : -13.5 | 101.0 | 106.0 | 5.6
Cc1cc(O)c(Cc2c(O)cc(C)n(C)c2=O)c(=O)n1C
 : -11.4 | 102.0 | 104.0 | -3.9
CC(=O)Nc1nc(-c2ccc(S(=O)(=O)N3CCOCC3)cc2)cs1
 : 1.6 | 100.0 | 103.0 | -21.5
S=C1NC2(CCCC2)NN1c1ccccc1
 : 17.9 | 105.0 | 109.0 | -16.2
CCn1cc(C(=O)NC2CCCCC2)c(=O)c2cc(S(=O)(=O)N3CCCC3)ccc21
 : -0.2 | 101.0 | 103.0 | -2.2
CCCc1cc(C(=O)NC(C)C)no1
 : 3.1 | 100.0 | 101.0 | 2.1
CCOC(=O)c1ccc(NC(=O)CC2C(=O)N(c3ccc(F)cc3)C(=O)N2Cc2cccs2)cc1 (stereo unspecified)
 : 6.8 | 105.0 | 106.0 | -9.5
Cc1nc2ccc(NC(=S)NCCCO)cc2nc1C
 : 71.8 | 103.0 | 102.0 | -93.8
Cc1c(C(=O)Nc2ccccc2)sc2ncn(CC(N)=O)c(=O)c12
 : . | 110.0 | 127.0 | -6.8
CCn1c(C)c(C)c2cc(C(=O)NCc3cccs3)ccc21
 : -46.1 | 101.0 | 103.0 | -0.5
O=C(CNS(=O)(=O)c1ccccc1)N1CCN(c2ccccc2)CC1
 : -2.2 | 99.0 | 102.0 | -15.9
COc1ccc(-c2csc(NC(=O)C(C)C)n2)cc1
 : -4.7 | 105.0 | 102.0 | -30.6
Cc1ccccc1-n1c(-c2ccc(Br)cc2)n[nH]c1=S
 : . | 101.0 | 105.0 | -15.1
CSC(N)=Nc1csc(C(F)(F)F)c1-c1ccccc1
 : -7.3 | 107.0 | 114.0 | -21.1
CCc1ccc(C(=O)CSc2nnc(-c3nn(Cc4ccccc4)c(=O)c4ccccc34)o2)cc1
 : 1.7 | 101.0 | 108.0 | -3.5
O=C(C[n+]1ccccc1)Nc1c2c(nc3c1CCC3)CCCC2
 : 5.5 | 103.0 | 104.0 | -13.4
COc1ccc(-c2ccc3cnn(Cc4cccs4)c3n2)cc1
 : 20.3 | 112.0 | 109.0 | -16.0
O=C(Cn1c(C(=O)N(Cc2ccco2)CC2CCCO2)cc2sccc21)c1ccccc1 (stereo unspecified)
 : -0.5 | 105.0 | 103.0 | -43.9
CCn1c(C)nc2cc(C(=O)Nc3nnc(-c4ccccc4Cl)s3)ccc21
 : 89.4 | 102.0 | 100.0 | -31.9

4 entries from above, field by field.
> CCn1c(C)c(C)c2cc(C(=O)NCc3cccs3)ccc21
  MbtI inh: -46.1; Polio RdRp inh: 101.0; Polio RdRp inh intensity: 103.0; Mtb MenB inh: -0.5
> O=C(CNS(=O)(=O)c1ccccc1)N1CCN(c2ccccc2)CC1
  MbtI inh: -2.2; Polio RdRp inh: 99.0; Polio RdRp inh intensity: 102.0; Mtb MenB inh: -15.9
> COc1ccc(-c2csc(NC(=O)C(C)C)n2)cc1
  MbtI inh: -4.7; Polio RdRp inh: 105.0; Polio RdRp inh intensity: 102.0; Mtb MenB inh: -30.6
> Cc1ccccc1-n1c(-c2ccc(Br)cc2)n[nH]c1=S
  MbtI inh: .; Polio RdRp inh: 101.0; Polio RdRp inh intensity: 105.0; Mtb MenB inh: -15.1

Additional entries follow.
smiles	MbtI inh	Polio RdRp inh	Polio RdRp inh intensity	Mtb MenB inh
O=c1cc(N2CCCCC2)nc2scc(-c3ccccc3)n12	-2.0	108.0	113.0	-10.8
O=C(Cn1nc(C(F)(F)F)c2c1CCCC2)N(Cc1ccccc1)Cc1ccccc1	-8.8	102.0	104.0	-26.4
O=C(Nc1nnc(-c2ccccc2Cl)o1)c1ccc(S(=O)(=O)N2CCCC2)cc1	-6.5	100.0	98.0	-26.5
O=c1[nH]c2c(s1)C(c1cccs1)C1C3CCC(C3)C1S2 (stereo unspecified)	33.1	99.0	102.0	21.1
Nc1ccc(/C=C/C(=O)O)cc1	41.1	97.0	89.0	-43.8
NC(N)=NS(=O)(=O)c1ccc(N=Cc2ccc3c(c2)OCO3)cc1	7.6	100.0	101.0	8.6
CC1CCc2nc(NC(=O)NCCCN3CCOCC3)sc2C1 (stereo unspecified)	-13.5	99.0	108.0	-20.8
Clc1cccc(C2C=C(c3ccccc3Cl)Nc3ncnn32)c1 (stereo unspecified)	2.0	97.0	101.0	-45.8
C=CCNc1nc(C(=O)OCC(=O)N(C2CCCCC2)C2CCS(=O)(=O)C2)cs1 (stereo unspecified)	1.7	104.0	105.0	-26.4
Cc1nc(CSc2nc3scc(-c4ccco4)c3c(=O)n2-c2ccccc2)cs1	20.0	96.0	106.0	-43.5
C=CCn1c(SCC(=O)c2ccccc2)nnc1-c1ccc2c(c1)OCO2	10.2	100.0	102.0	-7.7
C=CCOc1cccc(CNn2nnnc2N)c1	4.8	101.0	102.0	-16.5
CC(=O)NCc1ccc(C(=O)CSc2nnc(-c3ccccc3)o2)cc1	-4.0	115.0	131.0	-14.9
Cc1ncc(-c2cc3c(ccc4ccccc43)oc2=O)s1	-132.9	105.0	103.0	.
CCOC(=O)c1[nH]c(C)c(C=C(C#N)C#N)c1C	-11.3	101.0	101.0	-28.6
CCC1CCCCN1S(=O)(=O)Cc1ccccc1Cl (stereo unspecified)	-8.6	102.0	103.0	-7.8
Nc1ccc(Br)cc1-c1nc2ccccc2[nH]c1=O	7.6	102.0	104.0	-59.7
COc1cc(NC(=S)N2CCCCC2CO)cc(OC)c1 (stereo unspecified)	17.9	99.0	104.0	5.3
O=C(NC1CCCCC1)C(Cc1c[nH]c2ccccc12)NC(=O)C(c1ccccc1)c1ccccc1 (stereo unspecified)	.	107.0	108.0	-3.6
CCNC(=O)CSc1nc2ccccc2[nH]1	-24.2	108.0	109.0	-31.3
N/C(=N\O)c1cccc(NC(=O)C2CC2)c1	19.3	100.0	93.0	2.7
C#CCn1c(=NC(=O)C2CC2)sc2ccccc21	3.0	102.0	106.0	-11.2
CN(C/C(O)=C(\C#N)c1ccccc1)C1CCCCC1	-9.3	104.0	109.0	5.0
COc1cc(NC(=O)c2cnc(N3CCCC3)nc2)cc(OC)c1OC	9.4	103.0	104.0	-18.0
NCCc1ccc(F)cc1	-3.9	103.0	97.0	7.7
COc1ccc2cc3cc(C(=O)NCc4ccco4)oc3nc2c1	105.0	103.0	101.0	-22.8
Cn1ccnc1SCc1nc(-c2ccccc2)no1	-4.2	103.0	89.0	-7.1
C/C(N)=C(/C#N)C(=O)CSc1nc2ccccc2c(=O)n1-c1ccc(C)cc1	-4.0	106.0	107.0	-12.3
Cc1ccccc1OCC(=O)N1CCc2ccccc2C1	-5.0	101.0	103.0	-15.0
COc1cc(OC)cc(-c2nnc(NC(=O)c3ccc(S(=O)(=O)N(C)c4ccccc4)cc3)o2)c1	5.8	102.0	100.0	-9.7
COc1ccc(NC(=O)c2ccc(C3SCC(=O)N3Cc3ccco3)cc2)cc1 (stereo unspecified)	-2.6	98.0	101.0	-1.8
Cc1nnc(Nc2ccccc2)c2c1nnn2Cc1ccccc1Cl	-0.7	101.0	104.0	10.7

High-throughput results from PubChem BioAssay.
